Screening data as filed in PubChem.
Mtb growth – M. tuberculosis H37Rv growth inhibitors, H37Rv strain (AID 1626). M. tuberculosis H37Rv growth inhibition; higher % means a stronger effect. inhibition, % at 10 µM; hits with a dose series show IC50 in µM. 220,000 tested, 0.95% active;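 active = confirmed in a dose series; inconclusive = inhibition above 80% but not taken into the dose series; inactive = below 80% or under 30% at every dose of the series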;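 note: bacteria incubated seven days before Alamar blue readout; 0% = bacteria only wells and 100% = bacteria with antibiotic wells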
Mtb bLac sens – beta-lactam sensitization of Mtb H37Rv; 330,000 tested, 0.27% active; M. tuberculosis H37Rv growth with meropenem, percent inhibition; hits of this screen are not shown here; inhibition, % at 25 µM;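 active = about 74% or more and at least 40 points above the plate without the antibiotic, then above 30% in a dose series; inconclusive = first-round hits that could not be retested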;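 note: growth measured after seven days incubation then overnight dye step; 0% = bacteria only wells and 100% = bacteria with antibiotic; twin plates without the antibiotic show which effects depend on it; some results filed as inactive read as strong as hits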
YopH inh – blocks Yersinia enterocolitica YopH tyrosine phosphatase. fluorescence Ex485/Em525. inhibition, %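 (about 10 µM by stock and volumes)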. 140,000 tested, 0.16% active;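 active = inhibition of 50% or more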;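 note: controls were vehicle for no effect and minimum signal wells for full effect; inactives centre near -20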
RecA splice inh – blocks M. tuberculosis RecA intein splicing; AID 2221; 290,000 tested, 0.75% active; P9WHJ3; cell-free RecA intein splicing, fluorescence; inhibition, %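 (about 9 µM by stock and volumes)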; in the data active = inhibition above about 30%; inconclusive = no clear call, values can overlap the other calls;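 note: 0% = vehicle wells and 100% = reference inhibitor control wells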
Target sequence (P9WHJ3 whole entry, looked up, canonical isoform): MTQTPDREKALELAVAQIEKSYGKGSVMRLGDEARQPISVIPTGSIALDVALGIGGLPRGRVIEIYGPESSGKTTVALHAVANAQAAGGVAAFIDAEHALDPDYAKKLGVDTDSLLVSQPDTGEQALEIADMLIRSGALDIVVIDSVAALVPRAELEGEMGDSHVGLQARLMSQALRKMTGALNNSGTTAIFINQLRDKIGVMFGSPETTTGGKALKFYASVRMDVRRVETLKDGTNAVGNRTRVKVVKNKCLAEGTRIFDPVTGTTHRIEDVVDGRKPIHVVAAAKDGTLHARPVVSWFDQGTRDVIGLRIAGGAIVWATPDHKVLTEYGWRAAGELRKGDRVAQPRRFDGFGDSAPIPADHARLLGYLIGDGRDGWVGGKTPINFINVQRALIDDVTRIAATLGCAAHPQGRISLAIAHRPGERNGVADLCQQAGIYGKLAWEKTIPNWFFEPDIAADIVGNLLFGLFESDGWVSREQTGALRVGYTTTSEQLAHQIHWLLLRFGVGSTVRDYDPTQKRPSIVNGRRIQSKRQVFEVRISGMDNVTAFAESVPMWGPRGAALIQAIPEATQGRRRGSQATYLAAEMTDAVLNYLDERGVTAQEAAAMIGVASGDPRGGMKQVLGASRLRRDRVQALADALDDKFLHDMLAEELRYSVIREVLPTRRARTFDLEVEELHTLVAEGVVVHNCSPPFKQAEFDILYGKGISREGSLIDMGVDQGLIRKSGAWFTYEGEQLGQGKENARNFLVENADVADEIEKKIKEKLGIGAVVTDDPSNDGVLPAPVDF
Arbovirus inh – arbovirus infection inhibition | arbovirus infection cell-based antiviral screen | inhibition, % at 10 µM | 200,000 tested, 0.37% active | AID 1251;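 active = inhibition from about 30%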;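 note: bluetongue infection of BSR cells; cell survival read as ATP light after 72 h; 0% = infected wells without compound and 100% = uninfected wells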
* = called active by the depositor; ? = inconclusive; . = not tested or not shown.

SMILES	Mtb growth	Mtb bLac sens	YopH inh	RecA splice inh	Arbovirus inh
Cc1cc(N/N=C/c2ccc(Cl)cc2)nc(NCc2ccccc2)n1	15%	98	-20	16	-24
Fc1cccc2sc(Nc3nnc(-c4ccco4)o3)nc12	<0.2µM*	95	-26	-2.2	-14
CC(C)C(NC(=O)CCN1C(=O)c2ccccc2C1=O)c1ccccc1 (configuration not stated)	.	-3	.	0.6	.
CCC(C)NC(=O)C1CCN(S(=O)(=O)c2cccnc2)CC1 (configuration not stated)	-3%	3	-21	-0.6	-4
CCN(C(=O)c1ccc2c(=O)n3c(nc2c1)CCCCC3)c1ccc(F)cc1	.	8	.	-0.7	.
Cc1ccc(C(=O)N/C(=C\c2cn(-c3ccccc3)nc2-c2ccccc2)C(=O)N2CCOCC2)cc1	5%	4	-30	0.5	2
O=C(Cn1nc2ccccc2n1)N/N=C/c1cc([N+](=O)[O-])ccc1O	8%	8	.	9.5	17
CCCC(=O)Nc1nnc(S(=O)(=O)N(CC)c2ccccc2)s1	.	1	.	-1.2	.
COc1cccc(NC(=O)c2oc3ccc(S(=O)(=O)N4CCOCC4)cc3c2C)c1	50%	69	.	-2.3	-1
Cc1ccc(C)c(N2CCN(C(=O)CCNC(=O)Cn3ccc4ccccc4c3=O)CC2)c1	2%	14	-53	-2.5	8
Cc1cc(C)cc(-n2c(SCC(=O)Nc3cccc(S(=O)(=O)NC4=NCCCCC4)c3)nc3ccccc3c2=O)c1	-8%	3	8	7.7	-14
C=CCCN(C(C(=O)OC)C(C)C)S(=O)(=O)c1ccccc1Br (configuration not stated)	-6%	-9	.	-1.3	.
CCOC(=O)N1CCC(NC(=O)c2cc(-c3ccc(F)cc3)[nH]c2C)CC1	.	-7	-41	0.6	0
CC(OC(=O)c1cccc(-n2cnnn2)c1)C(=O)Nc1ccc(N(C)C)cc1 (configuration not stated)	.	-7	.	-2.9	.
CCOC(=O)c1cc(-c2ccccc2)nc2nc(N3CCCCC3)sc12	6%	4	-23	-36	-8
Cc1ccc2c(c1)N(C(=O)CCC(=O)NCCCN1CCOCC1)CC(C)O2 (configuration not stated)	.	-3	.	-1.9	.
COC(=O)c1ccc(C23CC4(C2)[C@H](CN(Cc2ccc(C(F)(F)F)cc2)[C@@H]4c2ccccc2)C3c2ccc(C(F)(F)F)cc2)cc1 (some centres not stated)	-4%	.	.	3.5	.
Cc1ccsc1-c1n[nH]c(=S)n1C1CCCCC1	2%	10	-11	3.9	4
CC1(C)CC(=O)C(CC2C(=O)CC(C)(C)CC2=O)C(=O)C1	-7%	7	.	1.6	.
COc1ccc(CCn2nc(C)c([N+](=O)[O-])c2C)cc1	.	-18	.	-0.3	.
CS(=O)(=O)N(CC(=O)N1CCCCCC1)c1cc(Cl)ccc1Cl	.	-6	.	-1.0	.
Cc1cc(=O)oc2cc(NS(=O)(=O)c3ccccc3)ccc12	-9%	2	.	-55	.
CN(C)c1cccc(C(=O)NCCCn2ccc3ccccc32)c1	.	7	.	2.1	.
Cc1ccc(C2CC(c3ccccc3)=NN2C(=S)Nc2ccccc2)o1 (configuration not stated)	6%	-15	-7	5.4	-7
CCCCOc1ccccc1Cn1c(=O)oc2ccc(C)cc21	-2%	-2	9	8.0	2
CCCC(C)NC(=O)CSc1nc2ccc(C)cc2[nH]1 (configuration not stated)	1%	4	.	-2.3	7
Cc1cc(=O)[nH]c(SCC(=O)N2C(C)CCCC2C)n1 (configuration not stated)	.	-1	.	-3.0	.
COc1ccc(/C=C(/NC(=O)c2ccccc2)C(=O)N2CCCCC2)cc1	.	-7	.	-0.3	.
COc1ccccc1S(=O)(=O)Cc1ccc(C(=O)NC2CCCCC2)o1	.	9	-15	1.5	7
CC1=C(C(=O)NCc2ccccc2)C(c2cccs2)NC(=S)N1 (configuration not stated)	-8%	-1	.	-2.1	2
Cc1cc2ccccc2c(=O)n1CC(=O)NCc1ccco1	-5%	-5	-43	0.0	7
COC(=O)c1cc(=O)n(Cc2ccco2)c(=Nc2ccc(F)cc2)s1	?	93	.	5.3	-22
CC1CCN(C(=O)C(NS(=O)(=O)c2cccc3nsnc23)C(C)C)CC1 (configuration not stated)	.	-5	.	-6.1	.
COc1ccc(Cc2noc(COc3ccc(Cl)cc3)n2)cc1	13%	6	-10	14	3
COc1cccc(-c2nc(C#N)c(N3CCN(C(=O)c4ccco4)CC3)o2)c1	.	6	.	0.8	.
COc1ccc(C2=NN(CN3C(=O)C(=O)c4ccccc43)C(c3ccc(Br)cc3)C2)cc1 (configuration not stated)	1%	59	-20	3.6	-13
COc1ccccc1S(=O)(=O)N1CCN(S(=O)(=O)c2ccccc2C#N)CC1	.	-2	.	0.4	.
COc1ccc([N+](=O)[O-])cc1NC(=O)CCNC(=O)Cn1ccc2ccccc2c1=O	2%	1	.	0.4	-1
COc1ccc(CC(=O)Nc2nnc(C(C)C)s2)cc1	-3%	.	.	7.5	3
COCCn1nnnc1C(c1ccccn1)N1CCN(c2cc(Cl)ccc2C)CC1 (configuration not stated)	-4%	-1	-8	3.6	7
CC(Oc1ccccc1)C(=O)N=C1SC2CS(=O)(=O)CC2N1c1cccc(F)c1 (configuration not stated)	.	7	.	2.6	.
CCCc1cc(=O)[nH]c2nnc(SCC(=O)Nc3ccc(C(C)=O)cc3)n12	.	-2	.	-0.6	.
CC1(CC(=O)N/N=C/c2ccc(-c3cccc(C(F)(F)F)c3)o2)OCCO1	7%	3	-28	-2.3	-2
Cc1ccc(S(=O)(=O)NC2(C(F)(F)F)C(=O)Nc3c2c(=O)n(C)c(=O)n3C)cc1 (configuration not stated)	-5%	1	-11	-9.5	-7
COc1ccccc1NC(=O)Nc1nnc(Cc2ccccc2F)s1	.	6	.	1.2	.
CCc1nc(NCCO)c(C#N)c2c1CSC(C)(C)C2	9%	-6	.	0.2	.
Cc1csc2c(=O)sc(NC(=O)c3ccco3)nc12	-2%	-5	.	-4.2	.
CC1(C)CC(=O)C=C(NCc2ccco2)C1	-8%	-4	-48	2.9	.
CCO[C@H]1OC(C(=O)N2CCN(C)CC2)=C[C@@H](C2CC2)[C@@H]1CCCO	-13%	-6	.	-3.3	-1
Cc1ccccc1OCC(=O)OCC(=O)c1ccc(OC(=O)c2ccccc2)cc1	53%	94	-35	2.9	-2
O=C(CSC1=NCCS1)Nc1ccc(F)cc1	-3%	-4	.	8.6	-7
OCC[C@@H]1C[C@H](O)[C@@H](O)[C@]2(Cc3ccccc3CCO2)O1	.	-11	.	-3.3	.
C=CCOc1c(Br)cc(CNn2c(C)n[nH]c2=S)cc1OC	.	-6	.	-0.7	.
COCCN(C(=O)CSc1ncn[nH]1)c1c(N)n(Cc2ccccc2)c(=O)[nH]c1=O	.	-3	.	-6.9	.
Cc1cc(C)cc(N(CC(=O)NC2CCCCCC2)S(=O)(=O)c2c(C)[nH]c(=O)[nH]c2=O)c1	-3%	-10	.	.	.
COc1ccc(/C=C/C(=O)NCC2COc3ccccc3O2)c(OC)c1 (configuration not stated)	-3%	-4	.	4.6	-6
CC(=O)Nc1nc2c(ncn2COCCOC(C)=O)c(=O)[nH]1	-5%	.	-21	8.6	-2
CC(C)C(C)NC(=O)CN1C(=O)NC2(CCc3ccccc32)C1=O (configuration not stated)	.	-3	.	-0.3	.
Cc1ccc2c(c1)N(CCC(=O)NCc1ccccn1)C(=O)CO2	0%	-8	-7	-1.0	-1
O=C1NC(=S)N/C1=C\C=C\c1ccccc1	-6%	-1	.	-1.0	.

Later entries:
SMILES	Mtb growth	Mtb bLac sens	YopH inh	RecA splice inh	Arbovirus inh
Cc1ccc(-n2c(O)c(C=Nc3ccccc3N)c(=O)[nH]c2=O)cc1C	-1%	-3	-3	-1.1	-14
CCN(CC(=O)Nc1ccccc1C(F)(F)F)C(=O)c1ccc(N2C(=O)CCC2=O)cc1	.	-11	.	-2.4	.
COc1cc2nc(CN3CCN(C(C)=O)CC3)[nH]c(=O)c2cc1OC	-1%	-7	.	1.4	3
CC(C)(C)c1ccc(C(=O)Nc2c3c(nn2C(C)(C)C)CS(=O)(=O)C3)cc1	.	-12	.	-2.7	.
Cc1ccc(S(=O)(=O)N2CCN(C(=O)Cn3nc(C(=O)O)c4ccccc4c3=O)CC2)cc1	-18%	3	.	1.1	.
COc1ccc(NCN2C(=O)CCC2=O)cc1	>100µM*	-11	-6	8.8	-6
O=C1N/C(=C/c2cccs2)C(=O)N1Cc1ccccc1F	-4%	2	.	-1.2	1
COc1cc2c(cc1OC)C(COc1cc(C)cc(C)c1)N(C(C)=O)CC2 (configuration not stated)	.	-1	.	1.4	.
CCC1(c2ccc(Cl)cc2)NC(=O)N(CC(=O)NCc2ccc(F)cc2)C1=O (configuration not stated)	.	-3	.	-1.6	.
CC(=O)NC(Cc1ccccc1)C(=O)N1CCN(C(=O)c2ccco2)CC1 (configuration not stated)	-4%	-6	-20	0.1	0
O=C(CCN1N=C(c2ccccc2)CCC1=O)NCC1COc2ccccc2O1 (configuration not stated)	.	-5	.	1.2	.
Cc1ccc(-c2cc(C(=O)NCc3ccccn3)no2)cc1	0%	0	29	2.8	-2
COc1ccc(C2CC(=O)C=C(NCc3ccccc3)C2)cc1 (configuration not stated)	-1%	3	.	-1.5	.
COc1cc(NC(=S)N2CCCCC2C)cc(OC)c1OC (configuration not stated)	-3%	-1	.	1.4	10
CN(C)c1ccc(/C=N/n2cnn(Cc3ccccc3Cl)c2=S)cc1	4%	4	.	-7.6	-3
CCCSc1nsc(NC(=O)c2cccnc2OCC)n1	14%	30	.	5.1	15
Cc1cccc(Nc2ccc([N+](=O)[O-])cc2C(=O)O)c1	-7%	1	-20	-40	12
CC1(C)Cc2ccccc2/C(=C/C(=O)c2ccccc2)N1	.	-1	.	12	.
O=C(CCc1c[nH]c2ccccc12)Nc1ccc(S(=O)(=O)Nc2ncccn2)cc1	-2%	-4	.	2.1	11
Clc1ccc(-n2ncc3c(NCc4ccccn4)ncnc32)cc1	0%	-4	-35	0.2	-1
COc1ccc(OC)c(S(=O)(=O)NCCS(=O)(=O)N2CCN(c3ccccc3)CC2)c1	.	-4	.	-1.3	.
CCOC(=O)C1(Cc2ccccc2C(F)(F)F)CCN(C2CCSC2)CC1 (configuration not stated)	11%	-5	.	-0.4	1
CCN(CC)S(=O)(=O)c1ccc2oc(SCC3CN=C(c4ccc(OC)cc4)S3)nc2c1 (configuration not stated)	-4%	7	-69	-0.7	-9
CCCCOc1ccc(C(CC(=O)NC)C(=O)O)cc1 (configuration not stated)	-2%	4	8	-0.5	-2
O=C(Cc1n[nH]c(=O)[nH]c1=O)N/N=C/c1cccc(Cl)c1	13%	-4	.	0.4	.
CN(C)c1ccc(/C=[N+](\[O-])C2SC(=S)N(C)C2(C)C)cc1 (configuration not stated)	.	-2	-40	-7.4	1
CCOC(=O)c1sc(NC(=O)Cc2ccccc2OC)nc1C	.	-3	.	1.4	.
Cc1ccc(OCc2nnc(SC3CCc4ccccc4C3=O)n2C)cc1 (configuration not stated)	3%	-1	-10	6.9	4
Cc1cccn2c(CN3CCCC(c4ccccc4)C3)c(C(=O)N3CCOCC3)nc12 (configuration not stated)	0%	5	.	1.4	5
CC1=C(C(=O)Nc2ccccc2)C(c2ccc(N(C)C)cc2)NC(=O)N1 (configuration not stated)	5%	-12	-39	.	5

Filtered by structure, the compounds so far with a furan ring, fused or not.
SMILES	Mtb growth	Mtb bLac sens	YopH inh	RecA splice inh	Arbovirus inh
Fc1cccc2sc(Nc3nnc(-c4ccco4)o3)nc12	<0.2µM*	95	-26	-2.2	-14
COc1cccc(NC(=O)c2oc3ccc(S(=O)(=O)N4CCOCC4)cc3c2C)c1	50%	69	.	-2.3	-1
Cc1ccc(C2CC(c3ccccc3)=NN2C(=S)Nc2ccccc2)o1 (configuration not stated)	6%	-15	-7	5.4	-7
COc1ccccc1S(=O)(=O)Cc1ccc(C(=O)NC2CCCCC2)o1	.	9	-15	1.5	7
Cc1cc2ccccc2c(=O)n1CC(=O)NCc1ccco1	-5%	-5	-43	0.0	7
COC(=O)c1cc(=O)n(Cc2ccco2)c(=Nc2ccc(F)cc2)s1	?	93	.	5.3	-22
COc1cccc(-c2nc(C#N)c(N3CCN(C(=O)c4ccco4)CC3)o2)c1	.	6	.	0.8	.
CC1(CC(=O)N/N=C/c2ccc(-c3cccc(C(F)(F)F)c3)o2)OCCO1	7%	3	-28	-2.3	-2
Cc1csc2c(=O)sc(NC(=O)c3ccco3)nc12	-2%	-5	.	-4.2	.
CC1(C)CC(=O)C=C(NCc2ccco2)C1	-8%	-4	-48	2.9	.
CC(=O)NC(Cc1ccccc1)C(=O)N1CCN(C(=O)c2ccco2)CC1 (configuration not stated)	-4%	-6	-20	0.1	0

An excerpt, so the mix of outcomes need not match the whole.
